Screens deposited in PubChem BioAssay by Southern Research Specialized Biocontainment Screening Center.
Mtb bLac sens: beta-lactam sensitization of Mtb H37Rv | inhibition, % at 25 µM | 330,000 compounds, 0.27% hits | AID 434955 | M. tuberculosis H37Rv growth with meropenem, percent inhibition; hits of this screen are not shown here;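 active = about 74% or more and at least 40 points above the plate without the antibiotic, then above 30% in a dose series; inconclusive = first-round hits that could not be retested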;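 also: growth measured after seven days incubation then overnight dye step; 0% = bacteria only wells and 100% = bacteria with antibiotic; twin plates without the antibiotic show which effects depend on it; some results filed as inactive read as strong as hits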
An asterisk follows results filed as active; ? = inconclusive.

SMILES	Mtb bLac sens
O=C(CN1CCCC1c1cccs1)Nc1cccc(S(=O)(=O)N2CCCC2)c1 (stereo not given)	-3
CCOC(=O)CC1(NC(=O)c2cc(COc3cncc(Cl)c3)on2)CCCCC1	?
CC(=O)[C@H]1CC[C@H]2[C@@H]3CC=C4C[C@@H](O)CC[C@]4(C)[C@H]3CC[C@]12C	-7
CN(CC(=O)Nc1ccc(F)cc1)C(=O)COc1ccccc1Cc1ccccc1	2
COc1cccc(C(=O)OCC(=O)NC23CC4CC(CC(C4)C2)C3)c1	1
C=CC[C@@H](CC(=O)NCCO)C(=O)N[C@H](COC(=O)[C@@H](CC=C)Cc1ccc(F)cc1)Cc1c[nH]c2ccccc12	-4
CCOc1ccccc1OCC(=O)OCC(=O)c1c(N)n(CC(C)C)c(=O)n(C)c1=O	-1
O=C(Nc1ccc(C(F)(F)F)cc1)c1ccccc1-n1cnnn1	-3
CN(CC(=O)Nc1ccccc1Cl)C(=O)C1CCN(C(=O)c2ccc(F)cc2)CC1	-7
O=C(CN1C(=O)NC2(CCCC2)C1=O)NCc1ccccc1	2
O=S(=O)(Nc1ncccn1)c1ccc(Cl)cc1	-7
COc1ccc(Cl)cc1C(=O)NNC(=O)c1cc2ccccc2o1	2
COC(=O)c1ccc(N2CCN(C)CC2)c(NC(=O)c2cccs2)c1	5
O=C(CNC(=O)c1ccccc1)OCC(=O)c1ccc(Cl)s1	2
O=C(OCC(=O)N1CCOCC1)c1ccccc1OCc1ccccc1	-7
O=C(Nc1cc(C(=O)N2CCN(c3ccccc3)CC2)ccc1Cl)c1cccs1	7
O=C(COC(=O)c1ccc([N+](=O)[O-])o1)NCc1ccc2c(c1)OCO2	70
COc1ccc2nc(NC(=O)CSc3cn[nH]n3)sc2c1	90
Cc1ccc(CN2CCCN(C)CC2)c(C)c1	-5
Cc1cc(C(=O)OCC(=O)N2CCC(C)CC2)c2ccccc2n1	2

Part of the list above, field by field.
> Cc1ccc(CN2CCCN(C)CC2)c(C)c1
  Mtb bLac sens: -5
> COc1ccc2nc(NC(=O)CSc3cn[nH]n3)sc2c1
  Mtb bLac sens: 90
> COc1ccc(Cl)cc1C(=O)NNC(=O)c1cc2ccccc2o1
  Mtb bLac sens: 2

Other structures follow.
SMILES	Mtb bLac sens
CC(C)=CCC/C(C)=C/COc1c2occc2cc2ccc(=O)oc12	-2
O=C(COC(=O)c1ccc(C(F)(F)F)cc1)Nc1cccc(S(=O)(=O)NC2=NCCCCC2)c1	4
COc1ccc(S(N)(=O)=O)cc1C(=O)NNC(=O)CN(C)S(=O)(=O)c1ccc(Cl)cc1	13
Cc1c(C(=O)N2CCN(S(=O)(=O)c3ccccc3F)CC2)oc2c(Cl)cccc12	52
CC(C(=O)N1CCc2ccccc21)N1CCN(S(=O)(=O)c2ccc(C(F)(F)F)cc2)CC1 (stereo not given)	9
COCO/C=C(\NC(C)=O)c1ccccc1	3
CCCCn1nc(C(=O)N(C)C2CCCCC2)c2ccccc2c1=O	-2
Cc1ccc(S(=O)(=O)N2[C@@H](c3ccc(F)cc3)C(C(=O)O)=C[C@H]2CC2CCCC2)cc1	0
CCN(C[C@H]1N[C@@](CC)(C(=O)OC)[C@H]2C(=O)N(Cc3ccccc3)C(=O)[C@@H]12)S(=O)(=O)c1ccc(C(F)(F)F)cc1	-9
O=C(CCC1CCCC1)NNC(=O)c1ccc(F)cc1	-5
CN1CCN(C(=O)CNC(=O)C23CC4CC(CC(C4)C2)C3)CC1	-2
O=C(OCc1nnc(-c2cccs2)o1)c1cccnc1Cl	0
CN1CCN(CC(C)(C)NS(=O)(=O)c2ccccc2)CC1	0
CCOC(=O)C1=C(COC(=O)CCNS(=O)(=O)c2ccc(C)c(C)c2)NC(=O)NC1C (stereo not given)	-6
COc1ccc(-n2c(=O)c(CCC(=O)N3CCC(C)CC3)nc3ccccc32)cc1	-1
Cc1c(NS(=O)(=O)c2cccc(C(=O)Nc3ccccc3)c2)c(=O)n(-c2ccccc2)n1C	3
CN(c1ccccc1)S(=O)(=O)c1cccc(C(=O)OCC(=O)NCc2ccccc2)c1	-3
CCOC(=O)c1ccc(S(=O)(=O)NNC(=O)Cc2csc(C)n2)cc1	-1
O=C(CSc1ncnc2sccc12)NCc1ccc2c(c1)OCO2	14
CCC(CC)c1nnc(NC(=O)CC(C)c2ccccc2)s1 (stereo not given)	-9
CCCCCCSc1ccc([C@@H]2[C@H]3C(=O)N(CC)C(=O)[C@H]3[C@]3(C(=O)OC)CCCN23)cc1	-14
CN(CC(=O)Nc1ccc(OC(F)(F)F)cc1)C(=O)Cn1c(=O)cnc2ccccc21	-1
Cc1ccccc1NC(=O)Cc1nc(COC(=O)c2nc(Cl)ccc2Cl)cs1	-5
O=C(c1ccc(Cl)c(S(=O)(=O)N2CCc3ccccc32)c1)N1CCN(c2ccccc2O)CC1	2
C[C@H](NC(=O)c1ccc(Cl)cc1)C(=O)NNC(=O)c1cccs1	-8
Cc1onc(-c2c(F)cccc2Cl)c1C(=O)N[C@@H]1C(=O)N2C(C(=O)O)C(C)(C)S[C@H]12 (stereo not given in full)	-9
CON(C)C(=O)/C=C/CCCCNC(=O)OC(C)(C)C	-1
NNC(=O)c1n[nH]c2c1CC(C1CCCCC1)CC2 (stereo not given)	-5
Cc1ccc2c(c1)C(=O)C(=O)N2Cc1ccc(C(F)(F)F)cc1	6
Cc1ccsc1C(=O)N1CCN(C(=O)c2ccco2)CC1	-6
C=CCn1c(SCC(=O)NCC(c2ccccc2)N(C)C)nnc1C1CCCCC1 (stereo not given)	-9
CC(C)(C)OC(=O)N1CCC(NC(=O)c2nc[nH]c2C(=O)NC2CCN(C(=O)OC(C)(C)C)CC2)CC1	0
Cc1ccc(NC(=O)CN(C)CC(=O)N(C)Cc2ccccc2)cc1	-1
Cc1ccc(C(=O)OCC(=O)NC2CCS(=O)(=O)C2)c(C)c1 (stereo not given)	-1
CN(C)c1ccc(Nc2nc(N)c3ccccc3n2)cc1	5
O=C(COC(=O)Cc1c(F)cccc1Cl)Nc1ccc2[nH]c(=O)[nH]c2c1	0
COc1ccccc1-c1sc2cc3c(cc2c1-c1ccc2c(c1)OCO2)OCO3	10
O=C(CNC(=O)c1ccc(Cl)cc1Cl)NCc1ccccn1	3
CC(C)NC(=O)N(C)C[C@H]1Oc2ccc(NS(=O)(=O)c3cn(C)cn3)cc2C(=O)N([C@H](C)CO)C[C@@H]1C	1
CCc1noc(C)c1C(=O)NNC(=O)COc1ccc(C)cc1	-13
Cc1csc(NC(=O)C2CC(=O)N(c3ccc4c(c3)OCCO4)C2)n1 (stereo not given)	0
NS(=O)(=O)c1ccc(CCNC(=O)c2ccc(-c3ccccc3)cc2)cc1	-7
OCC[C@H]1C[C@@H](O)[C@H](O)[C@]2(CCc3ccccc3CO2)O1	7
CC1CC(C)CN(C(=O)CN2C(=O)NC3(CCCCCCC3)C2=O)C1 (stereo not given)	0
CC(C(=O)OCC(=O)Nc1ccc(S(N)(=O)=O)cc1)N1C(=O)c2ccccc2C1=O (stereo not given)	3
O=C(NCCCNC(=O)c1cnccn1)c1cccc(Cl)c1	-5
C[C@@H]1CN([C@H](C)CO)C(=O)c2cccc(NS(=O)(=O)c3ccccc3)c2O[C@H]1CN(C)C	-2
CN(C)S(=O)(=O)c1cccc(COC(=O)CCNC(=O)c2ccc([N+](=O)[O-])cc2)c1	0
O=C(COc1ccccc1Cc1ccccc1)Nc1cccnc1	-4
C[C@H](CO)N1C[C@H](C)[C@@H](CN(C)S(C)(=O)=O)Oc2ccc(NS(=O)(=O)c3cn(C)cn3)cc2C1=O	0

Next records follow.
SMILES	Mtb bLac sens
C[C@@H]1COC(=O)[C@@H](Cc2ccc(F)cc2)C/C=C\C[C@@H](CC(=O)N[C@H](CO)Cc2ccccc2)C(=O)N1	1
C[C@H]1CN=C(N(C)C)N1CCCC1CCCCC1	-3
COc1cc(OC)c(NC(=O)c2cncn2-c2ccc(F)cc2)cc1Cl	-3
O=C(NCc1cccnc1)C1CCN(S(=O)(=O)c2cc([N+](=O)[O-])ccc2Cl)CC1	-3
O=[N+]([O-])O[C@H]1CO[C@H]2[C@@H]1OC[C@H]2O[N+](=O)[O-]	0
O=C(C[C@H]1C/C=C\CCCC(=O)OC[C@H]2CCCN2C1=O)NCCO	-3
CCCc1cc(=O)[nH]c(SCC(=O)N2CC3(C)CC2CC(C)(C)C3)n1 (stereo not given)	0
C[C@@]12C(=O)Nc3cc(Cl)ccc3C(=O)N1[C@H]1c3ccccc3OC[C@@H]1[C@@H]2c1ccccc1	99
Cc1ccc(NC(=O)C2CSC3(C)CCC(=O)N23)cc1S(=O)(=O)N1CCOCC1 (stereo not given)	0
Cc1ccc(C)c(OCCC(=O)N2CCN(S(=O)(=O)c3cc(F)ccc3F)CC2)c1	12

Looked up above.
For Mtb bLac sens, CN(C)S(=O)(=O)c1cccc(COC(=O)CCNC(=O)c2ccc([N+](=O)[O-])cc2)c1 is entered as 0
For Mtb bLac sens, Cc1cc(C(=O)OCC(=O)N2CCC(C)CC2)c2ccccc2n1 is entered as 2
For Mtb bLac sens, COc1ccc(S(N)(=O)=O)cc1C(=O)NNC(=O)CN(C)S(=O)(=O)c1ccc(Cl)cc1 is entered as 13

Next part
SMILES	Mtb bLac sens
COc1ccc(CCNC(=O)CCCCC(=O)NCCc2ccc(OC)c(OC)c2)cc1OC	27
CCc1ccc(NC(=O)COC(=O)CC2CCCC2)cc1	8
COc1ccccc1CNC(=O)CN1C(=O)NC2(CCOc3ccccc32)C1=O (stereo not given)	-2
Cc1cc(OCCOCCNCc2ccccc2)ccc1C(C)C	4
O=C(COC(=O)COc1ccc(Br)cc1)NC1CCCC1	-3
CCc1ccccc1NC(=O)CN1CCN(C(=O)CNC(=O)c2ccc(N3CCCC3=O)cc2)CC1	-3
COc1cccc(NC(=O)C(C)Sc2nnc(C3CC3)n2C2CC2)c1 (stereo not given)	-2
CCC(CO)Oc1cc(NCc2cccnc2)c2ncn(C(C)C)c2c1 (stereo not given)	0
CC(C)N(C(=O)COC(=O)CCC(=O)c1cccs1)c1ccccc1	1
COc1ccc2c(C#CCCO)c(-c3ccc(S(C)(=O)=O)cc3)sc2c1	2
COc1ccc(F)cc1C(=O)COC(=O)c1n[nH]c(=O)c2ccccc12	-3
COc1cc2cc(CCCOC(=O)c3ccco3)oc(=O)c2cc1OC	4
Cc1ccc(F)cc1NC(=O)c1ccc(OCC2CCCO2)cc1 (stereo not given)	-1
CCOc1ncccc1C(=O)OCC(=O)Nc1ccc2c(c1)OCCO2	7
ClCCOCOCCCl	4
Nc1ccn(CC(=O)NCc2ccc3[nH]ccc3c2)c(=O)n1	2
Cc1nnc(SC(C)C(=O)Nc2ccc(Cl)cc2Cl)[nH]c1=O (stereo not given)	-3
COc1ccc(Br)c(C(=O)OCC(=O)NC2CCCCCC2)c1	80
COc1ccc([C@H]2CC(=O)C=C(c3ccc4c(c3)OCO4)C2)cc1	47
Cc1ccc(NC(=O)C(C)OC(=O)COc2cccc(C(F)(F)F)c2)cc1 (stereo not given)	2
c1ccc(-c2cncnc2)cc1	-5
Cc1cc(C)c(NC(=O)CN2C(=O)NC3(CCc4ccccc43)C2=O)c(Cl)c1 (stereo not given)	-4
Cc1ccccc1OCC(=O)N(Cc1ccco1)c1c(N)n(Cc2ccccc2)c(=O)[nH]c1=O	4
COc1cccc(OC)c1C(=O)OCC(=O)NCc1ccco1	-5
Cc1ccc(/C=N/NC(=O)c2ccc(NC(=O)c3ccccc3Cl)cc2)o1	4
C=CCC[C@H](Cc1ccc(F)cc1)C(=O)OC[C@@H](NC(=O)[C@@H](CC=C)CC(=O)N(CCO)Cc1ccccc1)C(C)(C)C	-3
CCCC(=O)NC(c1ccccc1)c1ccc2cccnc2c1O (stereo not given)	4
CN(C(=O)COC(=O)c1ccc2c(c1)OCO2)C1CCCCC1	2
O=[N+]([O-])c1cc(S(=O)(=O)N2CCOCC2)ccc1NS(=O)(=O)c1ccccc1	-1
C=C1C(=O)O[C@@]23[C@H]1CC[C@@H](C)[C@@H]2CC[C@@]1(C)O[C@@H]31	62
C=C[C@@H]1c2cc(C)ccc2N(S(=O)(=O)c2ccc(C)cc2)[C@H](c2ccccc2)C1(C#N)S(=O)(=O)c1ccccc1 (stereo not given in full)	3
CN(C)C(=O)c1ccc(NC(=O)c2ccccc2SCC(=O)N2CCCC2)cc1	-2
COc1ccc(NC(=O)[C@@H]2CCCN2S(=O)(=O)c2cccc3cccnc23)cc1	0
C[C@H]1CN=C(N(C)C)N1CCc1ccccc1	-4
CC(C)=C[C@H]1C[C@H](C)[C@H]2CC[C@H](C)c3c(O[C@@H]4OC[C@@H](O)[C@H](O)C4O)c(O)c(C)c1c32 (stereo not given in full)	14
COc1cccc(-c2ncc3ccccc3c2CO)c1	-7
CCOC(=O)C1=C(CC)Nc2ccccc2N=C1NC(=O)c1cc(C)on1	0
Cc1noc(NS(=O)(=O)c2ccc(NC(=O)C(C)C)cc2)c1C	-8
COc1ccccc1C(=O)NC(=O)CSc1nnnn1C	-3
COc1ccc(C(=O)Nc2cccc(S(=O)(=O)NC3=NCCCCC3)c2)cc1	-2

7 entries from above, arranged by formula weight, descending.
SMILES	Mtb bLac sens
C=C[C@@H]1c2cc(C)ccc2N(S(=O)(=O)c2ccc(C)cc2)[C@H](c2ccccc2)C1(C#N)S(=O)(=O)c1ccccc1 (stereo not given in full)	3
CC(C)=C[C@H]1C[C@H](C)[C@H]2CC[C@H](C)c3c(O[C@@H]4OC[C@@H](O)[C@H](O)C4O)c(O)c(C)c1c32 (stereo not given in full)	14
CN(C)C(=O)c1ccc(NC(=O)c2ccccc2SCC(=O)N2CCCC2)cc1	-2
COc1ccc(NC(=O)[C@@H]2CCCN2S(=O)(=O)c2cccc3cccnc23)cc1	0
Cc1noc(NS(=O)(=O)c2ccc(NC(=O)C(C)C)cc2)c1C	-8
COc1ccccc1C(=O)NC(=O)CSc1nnnn1C	-3
C[C@H]1CN=C(N(C)C)N1CCc1ccccc1	-4

The listing continues:
SMILES	Mtb bLac sens
ClCC(Br)CBr (stereo not given)	-4
Cc1cc(OCC(=O)OCC(=O)NC2CCCCCC2)ccc1Cl	-5
CCOc1ccc(NC(=O)COC(=O)CSCC(=O)Nc2ccc(C)cc2C)cc1	-1
COc1ccc(C(=O)OCC(=O)N2CCOCC2)cc1S(=O)(=O)N1CCOCC1	-2
NNC(N)=O	-2

This is a subset (hit frequency here may not be typical).
